# Calb biofilm kill: mixture kills Candida albicans biofilm cells | AID 1242 | 120,000 compounds, 0.02% hits | C. albicans biofilm persisters + clotrimazole, fluorescence viability; primary screen in compound mixtures of four per well | inhibition, % at 7.6 µM;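 active = inhibition above 30.3% in the primary screen of four-compound pools, then above 30% when the compound was retested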;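 note: compounds exposed to preformed 24 h biofilms for 48 h; the number belongs to the whole pool; some results filed as inactive read as strong as hits; inactives centre near 12; 0% = biofilm with clotrimazole alone and 100% = kill control; retested singly at about 60 µM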
#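 Test system: C. albicans biofilms. Buffer or medium: RPMI/MOPS medium, pH 7.0. Timing: 48 h compound exposure at 37 °C. Technique: Alamar Blue fluorescence. Evaluation: percent inhibition of biofilm viability.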
# Active calls of the source: *. A portion of the library; rates above refer to the full screens.
# A first look, 2 compounds:
SMILES,Calb biofilm kill
O=Cc1c(Cl)nc2ccccn2c1=O,18
COc1ccc(CC(=O)Nc2cccc(C(=O)Nc3ccccc3C(=O)O)c2)cc1OC,15

# The whole of this part, from the start:
SMILES,Calb biofilm kill
O=Cc1c(Cl)nc2ccccn2c1=O,18
COc1ccc(CC(=O)Nc2cccc(C(=O)Nc3ccccc3C(=O)O)c2)cc1OC,15
COc1cccc(Cl)c1NC(=O)N1CCN(c2cc(C)nc3ccccc23)CC1,6
O=C(Cc1cc(C(=O)O)c2ccccc2n1)Nc1ccccc1,24
Nc1cc(=O)n(Cc2ccccc2)c(=O)n1-c1ccc(F)cc1,28
CC(=O)CS(=O)(=O)c1ccc(Oc2ccc(S(=O)(=O)CC(C)=O)cc2)cc1,14
Cc1c(N=C2SC(CC(=O)Nc3ccccc3)C(=O)N2CCN2CCOCC2)c(=O)n(-c2ccccc2)n1C (configuration not stated),13
O=C(CC1C(=O)NCCN1Cc1ccc(F)cc1)NCCOc1cccnc1 (configuration not stated),7
CSc1ccccc1NC(=O)CN(C)CC(=O)NCc1ccccc1,11
COc1ccc(CNC(=O)C/C(C)=N/NC(=O)COc2ccc(Br)cc2)cc1,19
CCOc1cc(C2c3c(oc4ccccc4c3=O)C(=O)N2c2nccs2)ccc1O (configuration not stated),17
COc1cccc(NC(=O)C(=O)NCCCn2ccnc2)c1,2
COc1cccc2c1C(=O)c1c(O)c3c(c(O)c1C2=O)C[C@@](O)(C(C)=O)C[C@@H]3O[C@H]1C[C@H](N)[C@H](O)[C@H](C)O1,18
CCCn1nnnc1NC(=O)COc1ccc(Cl)c(C)c1,18
CCOC(=O)c1cccc(-n2c(C)cc(C=O)c2C)c1,16
Cc1ccc(N=C2NC(=O)c3cc([N+](=O)[O-])ccc32)cc1,18
CCOC(=O)C1(Cc2cccc(F)c2)CCN(Cc2nc(CC)[nH]c2C)CC1,18
O=C(NC(=S)NCCc1ccc(Cl)cc1)c1ccco1,15
Cc1ccc(S(=O)(=O)N2CCCCC2)cc1NC(=S)NC(=O)c1ccco1,12
O=C(/C=C/c1cccc([N+](=O)[O-])c1)N(c1ccccn1)c1ccccn1,18
O=C(OCC(=O)c1ccccc1Br)c1ccncc1,-2
COc1ccc(NS(=O)(=O)c2ccc(NC(=O)c3ccc(N(C)S(C)(=O)=O)cc3)cc2)cc1,-11
CCOC(=O)c1c(-c2cccc([N+](=O)[O-])c2)csc1NC(=O)CCCOc1ccccc1OC,12
Nc1nc(CSc2nc3ccccc3s2)nc(N2CCOCC2)n1,-2
O=C(CCCN1C(=O)/C(=C/c2ccccc2)SC1=S)Nc1cccc(O)c1,29
# Later entries.
SMILES,Calb biofilm kill
O=C1/C(=C\c2ccco2)SC(=S)N1c1ccc(O)cc1,9
Cc1ccc2c(c1)N(CC(=O)NCc1ccco1)C(=O)C(C(C)C)O2 (configuration not stated),19
CCOc1ccc(NS(=O)(=O)c2ccc3[nH]c(=O)c(=O)[nH]c3c2)cc1,-7
COc1ccc(NC(=O)c2cc(C)cc(C)c2)cc1[N+](=O)[O-],2
CC(C)N1CCN(Cc2cn[nH]c2C2CCCCC2)CC1CCO (configuration not stated),6
O=C(COc1ccccc1/C=C\c1nc(O)c([N+](=O)[O-])c(=O)[nH]1)Nc1ccccc1,-1
Cc1nc2ccccc2c(=O)n1/N=C/c1c(O)ccc2ccccc12,17
Cc1cc(C(=O)NCc2ccc(Cl)cc2)n(-c2ccccc2)n1,31
COc1ccc(C)cc1S(=O)(=O)Nc1cccc(Cl)c1Cl,13
CCCCNc1cc(F)nc(N)n1,15
Cc1ccc(C(=O)C2=C(O)C(=O)N(c3ncccn3)C2c2ccc(Cl)cc2)o1 (configuration not stated),18
Cc1nc2ccc(Nc3ccncc3)cc2s1,11
CC1CCN(c2ccc(N3C(=O)C4CCCCC4C3=O)cc2[N+](=O)[O-])CC1 (configuration not stated),12
Cc1cc(C(=O)COC(=O)CNC(=O)c2ccc(F)cc2)c(C)n1Cc1ccco1,11
Cc1cccc(Nc2cc(C)c3c(O)cccc3n2)c1C,8
CC1(OC(=O)C2CCCC2)C(=O)C=C2C=C(c3ccsc3)N(CCN3CCOCC3)C=C2C1=O (configuration not stated),19
S=C(Nc1ccc(Nc2ccccc2)cc1)N1CCN(c2ncccn2)CC1,11
Cc1cccc[n+]1CC(=O)Nc1cccc([N+](=O)[O-])c1,16
O=C(c1ccccc1)c1ccc2nc(Nc3ccccc3)c3nncn3c2c1,23
Cc1ccc2nc(-c3ccncc3)cc(C(=O)NCCc3ccc(F)cc3)c2c1,20
CC(C(=O)Nc1ccc(C#N)cc1)N(C)CC(=O)Nc1cccc(F)c1 (configuration not stated),5
Cn1nc(C(C)(C)C)cc1C(=O)NCc1cc(F)cc2c1OCOC2,24
C=C(C)C1CC=C(C)/C(=N\NC(=O)CNc2ccccc2OC)C1 (configuration not stated),21
O=C(O)c1ccc2cccnc2n1,10
O=C(NN1C(=O)/C(=C/C=C/c2ccco2)SC1=S)c1ccccc1O,14

# Rewritten tab-delimited: 20 of the compounds above.
SMILES	Calb biofilm kill
O=C1/C(=C\c2ccco2)SC(=S)N1c1ccc(O)cc1	9
Cc1ccc2c(c1)N(CC(=O)NCc1ccco1)C(=O)C(C(C)C)O2 (configuration not stated)	19
CCOc1ccc(NS(=O)(=O)c2ccc3[nH]c(=O)c(=O)[nH]c3c2)cc1	-7
COc1ccc(NC(=O)c2cc(C)cc(C)c2)cc1[N+](=O)[O-]	2
CC(C)N1CCN(Cc2cn[nH]c2C2CCCCC2)CC1CCO (configuration not stated)	6
O=C(COc1ccccc1/C=C\c1nc(O)c([N+](=O)[O-])c(=O)[nH]1)Nc1ccccc1	-1
Cc1nc2ccccc2c(=O)n1/N=C/c1c(O)ccc2ccccc12	17
Cc1cc(C(=O)NCc2ccc(Cl)cc2)n(-c2ccccc2)n1	31
COc1ccc(C)cc1S(=O)(=O)Nc1cccc(Cl)c1Cl	13
CCCCNc1cc(F)nc(N)n1	15
Cc1ccc(C(=O)C2=C(O)C(=O)N(c3ncccn3)C2c2ccc(Cl)cc2)o1 (configuration not stated)	18
Cc1nc2ccc(Nc3ccncc3)cc2s1	11
CC1CCN(c2ccc(N3C(=O)C4CCCCC4C3=O)cc2[N+](=O)[O-])CC1 (configuration not stated)	12
Cc1cc(C(=O)COC(=O)CNC(=O)c2ccc(F)cc2)c(C)n1Cc1ccco1	11
Cc1cccc(Nc2cc(C)c3c(O)cccc3n2)c1C	8
CC1(OC(=O)C2CCCC2)C(=O)C=C2C=C(c3ccsc3)N(CCN3CCOCC3)C=C2C1=O (configuration not stated)	19
S=C(Nc1ccc(Nc2ccccc2)cc1)N1CCN(c2ncccn2)CC1	11
Cc1cccc[n+]1CC(=O)Nc1cccc([N+](=O)[O-])c1	16
O=C(c1ccccc1)c1ccc2nc(Nc3ccccc3)c3nncn3c2c1	23
Cc1ccc2nc(-c3ccncc3)cc(C(=O)NCCc3ccc(F)cc3)c2c1	20

# Going on with the list.
SMILES,Calb biofilm kill
Cc1ccccc1NC(=O)C(=O)N/N=C/c1cccc(Br)c1,18
Cc1cc(Sc2ncnc(N)c2[N+](=O)[O-])ncn1,6
COc1ccc(CNC(=O)COC(=O)c2ccco2)cc1,3
O=S(=O)(c1cccc2cccnc12)N1CCN(c2ccccn2)CC1,5
NS(=O)(=O)c1cccc(NC(=O)CNC(=O)CC23CC4CC(CC(C4)C2)C3)c1,2
CCn1c(O)c(/C=N/N=C2CCCCC2)c2cc(C3=NNC(=O)CC3)ccc21,20
COC(=O)c1cc(NC(=O)C(C)c2ccc(CC(C)C)cc2)ccc1O (configuration not stated),60
CN(C)CC1CCCCC1OC(=O)c1ccc(Cl)cc1 (configuration not stated),6
CCNc1nc(Cl)nc(N(NC(C)=O)C(C)C)n1,13
Cc1ccccc1C(=O)Nc1nnc(-c2ccco2)s1,8
COc1ccc(/C=C/C(=O)CC(O)(c2ccccc2)C(F)(F)F)cc1 (configuration not stated),8
Cc1ccccc1CC1(CO)CCCN(Cc2ccc3c(c2)OCCO3)C1 (configuration not stated),7
Cc1cc(Cl)c(O)c(-n2nc3ccccc3n2)c1,13
CCCN(CC#CC(O)(c1ccccc1)c1cccnc1)CCC (configuration not stated),15
Cc1cc(C)cc(NC(=O)c2cnn(-c3ccccc3)c2C2CCNCC2)c1,14
O=C(Nc1nnc(-c2ccco2)o1)c1ccc(N2C(=O)CCC2=O)cc1,6
CC(C)n1nc(C(=O)Nc2ccccc2N2CCOCC2)c2ccccc2c1=O,-7
O=C(NC1CCCCC1)c1cc(Cl)ccc1[N+](=O)[O-],20
c1ccc2c(CN3CCCCC3)csc2c1,14
Cc1ccc(S(=O)(=O)N(CC(=O)Nc2cccc([N+](=O)[O-])c2)Cc2ccc(Cl)cc2)cc1,15
COC(=O)C(C)n1nnc2sc(-c3ccccc3)cc2c1=O (configuration not stated),0
COCC(C)NC(=O)c1cc2cccc([N+](=O)[O-])c2[nH]1 (configuration not stated),21
CC(C)N1CCc2c(sc(NC(=O)CN3C(=O)c4ccccc4C3=O)c2C(N)=O)C1,4
COc1ccc([N+](=O)[O-])cc1N(CC(=O)NCCSc1ccccc1)S(C)(=O)=O,-5
Cc1ccccc1NC(=S)N(Cc1ccco1)C(C)c1ccccn1 (configuration not stated),14
# Going on with the list:
SMILES,Calb biofilm kill
COCCNS(=O)(=O)c1cc(OC)ccc1OC,8
Cc1ccc(COc2ccc(/C=N/NC(=O)CN3CCCCC3)cc2)cc1,15
C=CCOc1cccc(C2c3c(oc4ccc(F)cc4c3=O)C(=O)N2CCCN2CCOCC2)c1 (configuration not stated),3
O=C(C/C(=N\NC(=O)c1ccccc1Br)C(F)(F)F)c1cccs1,-5
O=C(NCCc1ccccc1)Nc1ccc(Cl)cc1,8
CCCCNC(=S)N(C)/N=C/c1c(F)c(F)c(F)c(F)c1F,21
COC(C[C@@H](O)CC(=O)[C@H](C)OCc1ccccc1)OC,21
CC(C)CCN(CCC(C)C)CC(O)Cn1c2ccccc2c(=O)c2ccccc21 (configuration not stated),24
COc1ccc(-n2c(C)cc(/C=C3\SC(=S)NC3=O)c2C)cc1,9
CC(C)CNC(=O)C(=O)NCCCN1CCOCC1,5
Cc1ccccc1-c1nn(-c2ccc(F)cc2F)cc1CNCCN(C)C,4
CCOc1cc(C(=O)Nc2ccc(NC(C)=O)cc2)ccc1OCC(=O)N1CCCCC1,5
c1csc(-c2nn3cnnc3c3ccccc23)c1,22
CC(=C1C(=O)c2ccccc2C1=O)N1CCN(CCN=CC2=C(O)CC(C)(C)CC2=O)CC1,-1
O=C(/C=C/c1ccccc1)NC(=S)Nc1ccc(CN2CCOCC2)cc1,4
Clc1ccccc1CO/N=C1\CCCc2nonc21,12
CCn1c(O)c(C2=c3ccccc3=NC2=O)c2cc(Br)ccc21,7
CCOc1ccc(NC(=S)N2CCCN(Cc3cc(C)ccc3C)C2)cc1,7
CCCn1cc(CN2CCCC(CNC(=O)c3ccc(F)cc3)C2)c(C)n1 (configuration not stated),19
Cc1cc(C)c2c(c1)/C(=N/NC(=O)c1cc(C)oc1C)CCC2,18
COc1cc(OC)cc(C(=O)NC(=S)NNC(=O)Cc2cccs2)c1,13
CC(NC(=O)c1ccco1)C(c1cccs1)N1CCN(c2ccc(F)cc2)CC1 (configuration not stated),9
C=CCN(CC=C)C(=O)COC(=O)c1n[nH]c2ccccc12,13
CCOc1ccc(NCc2nc3ccccc3n2CCOc2ccccc2)cc1,17
Cc1ccc(C(=O)O)cc1NC(=O)CN1C(=O)C2C3c4ccccc4C(Br)(c4ccccc43)C2C1=O (configuration not stated),7
# The list goes on:
SMILES,Calb biofilm kill
CSc1n[nH]c2nc3c(c(=O)n12)C1(CCCCC1)Cc1ccccc1-3,19
Cc1ccc(C2=NN(CC(=O)NCc3ccccn3)C(=O)CC2)cc1,14
COc1ccc(N2CCN(Cc3nnnn3C3CCCCC3)CC2)cc1,13
CC(O)Cc1cn([C@@H](CCCCNC(=O)OC(C)(C)C)C(=O)N2CCN(C(=O)OC(C)(C)C)CC2)nn1 (some centres not stated),14
COc1cc(C(=O)N2CCN(C(=O)c3ccco3)CC2)c([N+](=O)[O-])cc1OC,11
CC(C)CCc1noc(CN(C)CCC2CCOCC2)n1,16
CC(C)N1C(=O)CCC1C(=O)O (configuration not stated),-6
Cc1ccc(-c2nn(-c3ccccc3)cc2C(N)=O)o1,12
O=C(COC(=O)CCC(=O)c1cccs1)Nc1ncc(Cl)cc1Cl,9
CSc1ncc(CN2CCN(CC=C(C)C)C(CCO)C2)cn1 (configuration not stated),7
CCCCc1nnc2c(N(C)S(=O)(=O)c3ccccc3)nc3ccccc3n12,15
Cc1c(C(=O)N2CC3(CC(c4cccc(NC(=O)[C@H]5CCC(=O)N5)c4)=NO3)C[C@@H]2C(N)=O)cc([N+](=O)[O-])cc1[N+](=O)[O-] (some centres not stated),16
O=S(=O)(NC1=NCCCCC1)c1ccc(F)cc1,13
C=CCSC1=NNC(c2ccc(C(C)(C)C)cc2)=NN1,4
CCOc1ccccc1NC(=O)C(NCCN(C)C)c1ccccc1 (configuration not stated),8
COCCCn1nnnc1SCC(=O)N1CCN(C(=O)c2ccco2)CC1,23
O=C(NC(=S)N(CC1CCC1)CC1CCCO1)c1cccc([N+](=O)[O-])c1 (configuration not stated),28
Cn1c(SCC#N)nnc1-c1ccc2c(c1)OCO2,22
CCOc1ccc(-n2nc3ccc(NC(=O)c4ccc5c(c4)OCCO5)cc3n2)cc1,9
C=CCC(C(=O)OC)(C(=O)OC)c1ccccc1[N+](=O)[O-],18
Cc1ccc(NC(=O)CC2S/C(=N/N=C3/NC(=O)CS3)NC2=O)cc1 (configuration not stated),5
CC(=O)c1cccc(NC(=O)CC2S/C(=N/N=C/c3ccccc3)NC2=O)c1 (configuration not stated),14
CCOC(=O)C(=O)C1C(=O)Nc2ccccc21 (configuration not stated),5
O=[N+]([O-])c1cccc(C2Nc3cccc4cccc(c34)N2)c1,24

# Assay outcomes (PubChem BioAssay)
